Measles inh = inhibitors of measles virus growth in infected cells; infected Vero cells, GFP fluorescence, 64 h; stronger effect = lower value; z-score (test concentration not listed); hit rate 0.1% among 33,000; AID 745;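 active = z-score under -3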;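 note: score is relative to mean and SD of the compound wells of a plate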
* = called active by the depositor. The list is partial; the hit share may differ from the screen's.

SMILES	Measles inh
CC1CN(C(=O)Cn2cc([N+](=O)[O-])cn2)CC(C)O1 (configuration not stated)	-0.05
Cc1cc(C)c(S(=O)(=O)N2CCCN(S(=O)(=O)c3cc(Br)c(C)cc3C)CC2)cc1Br	-0.74
CCCCc1ccc(N=Cc2cc([N+](=O)[O-])ccc2O)cc1	0
Cc1cccc(NC(=O)c2c(NC(=O)C(F)(F)F)sc3c2CCCCC3)c1	0
CN(Cc1ccccc1)C(=O)c1cc2n(n1)C(C(F)(F)F)CC(c1ccccc1)N2 (configuration not stated)	-0.67
CCC(=O)N1CCc2cc(Br)cc(S(=O)(=O)CCC(=O)Nc3cccc(Cl)c3)c21	0.14
Cc1oc(-c2cccc(Br)c2)nc1CN1CCC(C(=O)NC(C)CCc2ccccc2)CC1 (configuration not stated)	0.09
O=C(NC1CCCc2ccccc21)c1cc2c(=O)oc3ccccc3c2s1 (configuration not stated)	-0.51
O=c1oc2ccccc2c(N2CCC(c3ccccc3)C2)c1[N+](=O)[O-] (configuration not stated)	0.38
O=C(CCN1C(=O)C2C3C=CC(CC3)C2C1=O)Nc1nccs1 (configuration not stated)	0.81
COc1cccc(NC(=O)Cn2cnc3sc(C)c(S(=O)(=O)N4CCN(C)CC4)c3c2=O)c1	-0.49
O=C(Nc1cc2ccccc2oc1=O)c1ccc(Br)cc1	3.7
Cc1ccc(-n2nc3c(c2NC(=O)c2cccc(F)c2)CS(=O)(=O)C3)c(C)c1	1.8
CC(CN=Cc1ccc(O)c2ccccc12)N=Cc1ccc(O)c2ccccc12 (configuration not stated)	-0.66
CCCCC1CCC(C(=O)Nc2c3c(nn2-c2cccc(Cl)c2)CS(=O)C3)CC1 (configuration not stated)	-0.56
CC(=O)N(C1CCCC1)C1CC(=O)N(c2ccc(Cl)cc2)C1=O (configuration not stated)	-0.6
Cc1cc(S(=O)(=O)Nc2ccc3oc4c(c3c2)CC(C)CC4)ccc1Cl (configuration not stated)	-0.39
O=C(NCc1ccc2c(c1)OCO2)c1ccc(Cn2c(SCc3ccc([N+](=O)[O-])cc3)nc3cc4c(cc3c2=O)OCO4)cc1	1.6
COc1cccc(NC(=O)c2ccc(N3CCc4ccccc4C3)c([N+](=O)[O-])c2)c1	-0.05
O=C(O)c1ccc(Oc2ccc3c(c2)C(=O)N(c2cccc([N+](=O)[O-])c2)C3=O)cc1	-1.1
COc1ccc2c(c1)c(=O)c1ccccc1n2CC(=O)Nc1ccccn1	-1.7
O=C(O)c1cc(=O)[nH]c2ccccc12	0.37
Cc1ccc(N2C(=O)c3ccccc3NC23C(=O)N(Cc2ccccc2F)c2ccccc23)cc1 (configuration not stated)	0.37
CCC(=O)NC(Nc1ccc(OC(F)(F)F)cc1)(C(=O)OC)C(F)(F)F (configuration not stated)	-1.4
CC1CCC2C(=O)N(c3ccc(OC(=O)c4ccccc4Br)cc3)C(=O)C2C1 (configuration not stated)	-0.46

Next section:
SMILES	Measles inh
Cc1ccc(NC(=O)CN2CCN(S(=O)(=O)c3ccc(C(C)C)cc3)CC2)cc1F	-0.64
Cc1ccc(-c2csc(Nc3cccc(C)c3C)n2)cc1	0.28
Cc1ccc(S(=O)(=O)NCc2ccc(C(=O)N3CCc4ccccc4C3)cc2)cc1	0.88
O=C(Nc1sc2c(c1C(=O)Nc1ccc(Cl)cc1)CCC2)c1ccco1	-0.88
COc1ccc(OC)c(CNC(=O)c2coc(=O)c3ccccc23)c1	0.66
CC1(C)CC(=O)c2c(nc3ccc(Br)cc3c2N)C1	-0.34
CCCc1cc2c(=O)c(-c3ccc4c(c3)OCO4)c(C)oc2cc1OC	-1.3
COC(=O)c1nc2nc(C)c([N+](=O)[O-])c(=O)n2[nH]1	-0.14
COCCCNC(=O)c1cc(-c2ccccn2)nc2ccc(S(=O)(=O)N3CCC(C)CC3)cc12	1
CCc1ccc(-c2nc3cc(NC(=O)c4cccc(I)c4)ccc3o2)cc1	-1.2
COc1ccc(C)cc1NC(=O)CN1CCN(S(=O)(=O)c2ccc(Br)cc2)CC1	-1
CC(C)(C)c1ccc(-c2nc(NCCCN3CCOCC3)c3ccccc3n2)cc1	-0.16
CCCCOC(=O)c1ccc(N2C(=O)CC(NCc3ccc4c(c3)OCO4)C2=O)cc1 (configuration not stated)	0.16
CN1c2ccc(I)cc2C(C)(C)C12C=Cc1cc([N+](=O)[O-])ccc1O2 (configuration not stated)	2.2
Cc1nc(Cl)c(C(=O)NC(=O)NCc2ccc(Cl)cc2)c(C)c1[N+](=O)[O-]	-0.41
COCCN1C(=S)NC2c3ccccc3OC1(C)C2C(=O)Nc1ccc(C)cc1C (configuration not stated)	-0.21
Cc1sc2ncn(CC(=O)NC3CCCCC3)c(=O)c2c1C	1.2
CCc1nc(C)ccc1OCC(=O)O	-0.07
CCCCn1c(=NC(=O)c2ccccc2C)c(C(=O)OCC)cc2c(=O)n3ccccc3nc21	6.6
COc1cccc(CNC(=O)CN2C(=O)COc3ccc(C(C)(C)C)cc32)c1	-0.66
COc1ccc(NC(=O)c2c(NC(=O)c3ccc(Br)cc3)sc3c2CCC(C)C3)cc1 (configuration not stated)	0.19
COc1cccc(C=Nc2cccnc2)c1O	-0.26
CC1=C(C(=O)OCCc2ccccc2)C(c2ccccc2[N+](=O)[O-])C2=C(CCCC2=O)N1 (configuration not stated)	-1.1
COc1cc(C2C(C(=O)Nc3cccc(C(F)(F)F)c3)=C(C)NC3=C2C(=O)CC(C)(C)C3)ccc1O (configuration not stated)	0.32
COc1cccc(C(=O)N2c3ccc(C)cc3C(C)(c3ccccc3)CC2(C)C)c1 (configuration not stated)	-0.14

The list goes on.
SMILES	Measles inh
COc1cc(NC(=O)CCCC2=NS(=O)(=O)c3ccccc3N2)cc(OC)c1	-0.55
CCCN(CCC)S(=O)(=O)c1cccc2nonc12	1.7
COc1ccc(-c2nc(=O)c3ccccc3o2)cc1	2.3
Cc1cc(C)c2c(=O)[nH]c(SCC(N)=O)nc2n1	0.54
CC(C)(C)c1ccc(CNc2cc(N3CCCCC3)ccc2[N+](=O)[O-])cc1	1
CCOc1ccc(NC(=O)C2=C(C)NC(=O)NC2c2ccc(OC)c(OC)c2)cc1 (configuration not stated)	0.31
CC(=O)c1cccc(NC(=O)N2Cc3ccccc3CC2S(C)(=O)=O)c1 (configuration not stated)	0.86
CCc1ccccc1NC(=O)CCS(=O)(=O)c1ccc(Br)s1	-0.02
CCN(CC)c1ccc(NC(=O)COc2ccccc2)cc1	0.71
COc1ccc(Cl)cc1NC(=O)c1cc2cc3ccc(C)cc3nc2s1	0.7
NS(=O)(=O)c1ccc(CCn2c(-c3ccccc3)nc(=S)c3c2CCCC3)cc1	-0.02
COc1ccccc1C(=O)NCCn1cc(SCc2ccccc2F)c2ccccc21	-0.17
CC(=O)Nc1ccc(N2C(=O)CC(Sc3nccc(C)n3)C2=O)cc1 (configuration not stated)	-0.33
CCCCOc1ccc(OC(=O)c2sc3ncn(C)c(=O)c3c2C)cc1	0.56
O=C(c1ccc2c(c1)OCO2)N(c1ccccc1)C1(C(=O)NC2CCCCC2)CCCCC1	0
COc1ccc(C(=O)Nc2ccc3c(c2)OCCO3)cc1[N+](=O)[O-]	-2.1
O=C(Nc1ccc(NC(=O)c2ccco2)c(Cl)c1)c1ccc(Cl)c([N+](=O)[O-])c1	-0.1
COc1ccc(Nc2nc(-c3ccc(Br)cc3)nc3ccccc23)c(OC)c1	-0.96
COc1ccc(S(=O)(=O)NCCc2c(C)[nH]c3ccc(OC(F)(F)F)cc23)cc1OC	0.4
Cc1ccc(C(=O)NCCOc2ccc(Cl)cc2)cc1	-0.46
Cc1ccc(S(=O)(=O)NCC2CCC(C(=O)NCc3ccccn3)CC2)cc1 (configuration not stated)	0.52
CC(=O)c1ccc(NC(=O)c2cc(-c3ccc(Br)cc3)on2)cc1	0.3
O=C(NC1CCCCCC1)c1c(O)c2c([nH]c1=O)CCCC2	-0.65
O=C(NCC1(c2ccccc2)CCCC1)c1cc2c(=O)[nH]c3ccccc3c2s1	-0.85
CCN(CC)Cc1cc(C2C3=C(CC(C)(C)CC3=O)OC3=C2C(=O)CC(C)(C)C3)ccc1OC	-0.27

(further entries)
SMILES	Measles inh
COc1ccc(C2C(C(=O)Nc3ccccc3C(F)(F)F)CC(=O)N2c2ccc(OC)cc2)cc1 (configuration not stated)	-1.5
O=C(Nc1ccc(-c2nc3ccccc3o2)c(O)c1)c1cncc(Br)c1	-0.43
COc1ccc(C2C(C(=O)Nc3cc(OC)ccc3OC)CCC(=O)N2c2ccc(OC)cc2)cc1 (configuration not stated)	-0.69
O=C(c1ccc2nc3ccc(Cl)cc3c(=O)n2c1)N1CCCCC1	0.53
Cc1nc(N(C)c2ccc(C(C)C)cc2)c2c(C)c(C(=O)NC(C)C)sc2n1	-0.58
COC(=O)C1=C(C)NC(=O)NC1c1ccc(OCc2ccccc2)c(OC)c1 (configuration not stated)	-0.2
CCc1ccc(NC(=O)N2CCC(N(C)CCC(C)C)CC2)cc1	-0.58
CCC(C)NC(=O)c1c[nH]c2ccc(S(=O)(=O)N(C)c3ccc(F)cc3)cc2c1=O (configuration not stated)	0.61
Cc1cccc2nc(-c3ccccn3)c(Nc3ccc4c(c3)OCO4)n12	3.6
CCC(=O)N1c2ccccc2-c2nnc(SC)nc2OC1c1cccc(C)n1 (configuration not stated)	-0.67
C=CCn1c(=N)n(CC(O)c2ccco2)c2ccccc21 (configuration not stated)	-0.25
COc1ccc(CC(=O)Nc2cc(C)c3c(=O)oc4ccccc4c3n2)cc1OC	0.65
COc1ccc(NC(=O)c2cc(S(=O)(=O)N3CCc4ccccc43)ccc2F)cc1	0
Cc1c(Cl)cccc1NCc1nnc2n1CCCCC2	-1.8
O=C(Nc1nc(-c2ccc(Oc3ccccc3)cc2)cs1)c1cc(Cl)ccc1[N+](=O)[O-]	1
CC(=O)N1c2ccccc2NC2=C(C(=O)CC(C)(C)C2)C1c1cccc(F)c1 (configuration not stated)	1.2
O=C(NC1CCCC1)c1cc2nc(-c3ccc(Br)cc3)cc(C(F)(F)F)n2n1	-0.28
COCCn1cnc2sc(C(=O)NC3CCCCC3)c(C)c2c1=O	1.9
CCOC(=O)c1ccc(NC(=O)CSc2nccn2-c2cccc(C)c2)cc1	1.1
Nc1sc2c(c1C(=O)Nc1ccccc1Cl)CCC2	1.1
COc1cc(NS(=O)(=O)c2cc(Br)cc3c2N(C(=O)C2CC2)CC3)cc(OC)c1	-1.1
Cc1ccc2c3c(ccc2n1)NC1=C(C(=O)CCC1)C3c1ccccc1C(F)(F)F (configuration not stated)	-0.71
CCCCSc1nc(C)cc(=O)[nH]1	0.15
CCOC(=O)C1=C(C)Nc2ncnn2C1c1ccc([N+](=O)[O-])cc1 (configuration not stated)	-0.53
O=C(NCCCN1CCOCC1)C1c2ccccc2Oc2ccccc21	0.27

Reformatted with the structure last: part of the list above
Measles inh,Structure
-1.5,COc1ccc(C2C(C(=O)Nc3ccccc3C(F)(F)F)CC(=O)N2c2ccc(OC)cc2)cc1 (configuration not stated)
-0.43,O=C(Nc1ccc(-c2nc3ccccc3o2)c(O)c1)c1cncc(Br)c1
-0.69,COc1ccc(C2C(C(=O)Nc3cc(OC)ccc3OC)CCC(=O)N2c2ccc(OC)cc2)cc1 (configuration not stated)
0.53,O=C(c1ccc2nc3ccc(Cl)cc3c(=O)n2c1)N1CCCCC1
-0.58,Cc1nc(N(C)c2ccc(C(C)C)cc2)c2c(C)c(C(=O)NC(C)C)sc2n1
-0.2,COC(=O)C1=C(C)NC(=O)NC1c1ccc(OCc2ccccc2)c(OC)c1 (configuration not stated)
-0.58,CCc1ccc(NC(=O)N2CCC(N(C)CCC(C)C)CC2)cc1
0.61,CCC(C)NC(=O)c1c[nH]c2ccc(S(=O)(=O)N(C)c3ccc(F)cc3)cc2c1=O (configuration not stated)
3.6,Cc1cccc2nc(-c3ccccn3)c(Nc3ccc4c(c3)OCO4)n12
-0.67,CCC(=O)N1c2ccccc2-c2nnc(SC)nc2OC1c1cccc(C)n1 (configuration not stated)
-0.25,C=CCn1c(=N)n(CC(O)c2ccco2)c2ccccc21 (configuration not stated)
0.65,COc1ccc(CC(=O)Nc2cc(C)c3c(=O)oc4ccccc4c3n2)cc1OC
0,COc1ccc(NC(=O)c2cc(S(=O)(=O)N3CCc4ccccc43)ccc2F)cc1
-1.8,Cc1c(Cl)cccc1NCc1nnc2n1CCCCC2
1,O=C(Nc1nc(-c2ccc(Oc3ccccc3)cc2)cs1)c1cc(Cl)ccc1[N+](=O)[O-]
1.2,CC(=O)N1c2ccccc2NC2=C(C(=O)CC(C)(C)C2)C1c1cccc(F)c1 (configuration not stated)

New compounds follow.
SMILES	Measles inh
Cc1ccc2nc(NS(=O)(=O)c3ccc(Cl)cc3)c(NCCO)nc2c1	4
COc1cccc(-c2nnc(NC(=O)c3ccc(S(=O)(=O)N4CC(C)OC(C)C4)cc3)o2)c1 (configuration not stated)	-1.1
Cc1ccc(-n2nc(C(=O)N3CCCCC3)c3c4ccccc4n(C)c3c2=O)cc1	1.3
Cc1ccc(/C(O)=C2\C(=O)C(=O)N(CCN3CCOCC3)C2c2ccc(C)cc2)cc1 (configuration not stated)	0.05
O=C1CC(C=Cc2cccc([N+](=O)[O-])c2)=Nc2ccccc2N1	-2.1
O=C1C2C(C(=O)N1c1ccc(F)cc1)N1CCCN1C2c1ccncc1 (configuration not stated)	-0.45
Cc1ccc(C(c2cccc([N+](=O)[O-])c2)c2ccc(C)o2)o1	-2.6
CCOC(=O)c1cccc(N2C(=O)C3C4C=CC(C)(O4)C3C2=O)c1 (configuration not stated)	-1.6
CC1(C)CC(=O)C(Sc2ncnc3nc[nH]c23)C(=O)C1	0.36
Cc1c(C(=O)Nc2ccc([N+](=O)[O-])cc2)sc2nc(-c3ccccc3)cn12	0.41
CCN(CC)C(=S)Oc1ccc(C(=O)Nc2cccc3ccccc23)cc1	-0.55
O=C(Oc1ccc(F)cc1)c1cccc([N+](=O)[O-])c1	-0.04
COc1ccc2c(c1)C1=NN(C(C)=O)C(c3ccc(F)cc3)C1CC2 (configuration not stated)	-0.05
Cc1ccc(C(=O)Nc2cccc(F)c2)cc1S(=O)(=O)N1CCCCC1	2.3
Cc1cccc(N2C(=O)CSC2c2cccc(C(F)(F)F)c2)c1 (configuration not stated)	-1.1

High-throughput results: PubChem, Emory University Molecular Libraries Screening Center
